High-throughput results deposited in PubChem BioAssay by ICCB-Longwood Screening Facility, Harvard Medical School.
Polio RdRp inh – inhibitors of poliovirus RNA polymerase binding and polymerization; poliovirus polymerase elongation, fluorescence polarization; active compounds read low; % elongation, % (compound at 16.7 µg/mL); actives 0.66% (n = 150,000); in the data active = % elongation below about 90%; note: some results filed as inactive read as strong as hits
Target sequence (P03300 1749-2209 limits assumed): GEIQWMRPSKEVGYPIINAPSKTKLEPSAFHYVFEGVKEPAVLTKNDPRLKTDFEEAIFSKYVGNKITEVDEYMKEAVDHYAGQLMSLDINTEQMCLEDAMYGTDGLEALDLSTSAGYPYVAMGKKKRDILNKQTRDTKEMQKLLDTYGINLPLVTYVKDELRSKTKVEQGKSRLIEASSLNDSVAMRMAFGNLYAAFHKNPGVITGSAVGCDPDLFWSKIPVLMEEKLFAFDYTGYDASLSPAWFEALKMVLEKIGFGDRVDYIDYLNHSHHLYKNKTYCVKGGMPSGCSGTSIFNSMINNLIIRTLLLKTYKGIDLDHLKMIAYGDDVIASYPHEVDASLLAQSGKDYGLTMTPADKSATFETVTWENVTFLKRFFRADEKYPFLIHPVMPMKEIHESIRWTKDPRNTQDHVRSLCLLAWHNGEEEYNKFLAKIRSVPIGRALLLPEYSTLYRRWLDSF
MenB inh – inhibitors of Mycobacterium tuberculosis MenB enzyme; P9WNP5; MenB enzyme assay, absorbance read-out; some hits fall short of the stated cut; inhibition, %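 (about 12 µg/mL by stock and volumes)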; actives 0.43% (n = 100,000);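 active = mean of two replicates above 30%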;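 note: 0% = no compound and 100% = wells with inactive enzyme; the first replicate is given; strong numbers were not always called active; inactives centre near -10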
Target sequence (P9WNP5 whole entry, looked up): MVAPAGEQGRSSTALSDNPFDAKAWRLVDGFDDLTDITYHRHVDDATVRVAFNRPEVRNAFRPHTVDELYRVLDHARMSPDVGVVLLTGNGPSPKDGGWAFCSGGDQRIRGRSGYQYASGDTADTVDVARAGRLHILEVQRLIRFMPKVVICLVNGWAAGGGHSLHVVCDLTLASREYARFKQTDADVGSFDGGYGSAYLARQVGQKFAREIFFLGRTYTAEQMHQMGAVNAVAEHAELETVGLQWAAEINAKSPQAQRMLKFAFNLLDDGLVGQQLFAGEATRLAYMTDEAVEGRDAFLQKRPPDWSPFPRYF
Mtb MbtI inh – blocks the Mycobacterium tuberculosis siderophore enzyme MbtI; AID 493033; purified MbtI enzyme, fluorescence intensity read-out; actives 0.89% (n = 100,000); P9WFX0; inhibition, %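 (about 17 µg/mL by stock and volumes)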;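 active = above 50% in both replicates, above 80% if mildly self-fluorescent; inactive = the rest, strongly fluorescent compounds included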;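 note: 0% = mean of negative and 100% = mean of positive controls; one replicate is shown; some compounds called inactive have numbers as strong as hits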
Polio RdRp inh intensity – recorded beside Polio RdRp inh, whose call it bears; % elongation; measured here: total intensity read-out; formula for this scale not given here;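 total fluorescence in place of polarization; lower means less elongation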
Starred values were filed as active, the others as inactive; . = not tested or not shown; & = joins results of further samples.

SMILES	Polio RdRp inh	Polio RdRp inh intensity	MenB inh	Mtb MbtI inh
COc1ccc2c(c1)sc(=NC(=O)c1cccc(S(C)(=O)=O)c1)n2C	105	102	-20	-6
O=C1c2ccccc2C(=O)N1Cc1cc(=O)n2ccsc2n1	104	110	-32	0
NC(=O)Cn1c(=O)c2ccc(Cl)cc2n2nncc12	102	105	-16	-25
O=c1oc2ccccc2cc1-c1nnc(-c2cccc3ccccc23)o1	109	108	-20	.
CN1C(=O)C(C#N)=C(N)C12CCCC2	99	104	5	1
Cc1nn2c(C)nc3sc4c(c3c2nc1=O)CC(C)(C)OC4	102	101	-38	12
COc1ccc(-c2ccc(CCC(=O)O)n2Cc2ccco2)cc1	102	106	-36	-19
Cc1nnc(SC(C(=O)N(C)C)c2ccccc2)n1C1CC1 (configuration not stated)	102	100	-2	-7
Cc1cc2ccccn2c1C#N	96	93	-121	104
O=C(CSc1nc2ccccc2c(=O)n1-c1ccccc1)N1CCCC1	99	101	.	-1
Cc1ccc(OCCNC(=O)c2ccccc2N)cc1	102	97	-5	.
COc1ccc(C(=O)CCC(=O)NCc2cc(OC)cc(OC)c2)cc1	99	103	6	-12
Cc1cc(C(=O)COC(=O)c2ccc(N)cc2)c(C)n1-c1c(C)n(C)n(-c2ccccc2)c1=O	104	109	-23	4
Cc1onc(-c2ccccc2)c1C(=O)NC(=S)Nc1sc2c(c1C#N)CCC2	100	105	-12	43
O=C(Cn1c2ccccc2c2cn[nH]c(=O)c21)NCCc1ccc(Cl)cc1	102	97	10	-39
CCOC(=O)c1sc(SCc2ccccc2)c(S(=O)(=O)C(C)C)c1-n1cccc1	100	98	-26	-2
Cc1ccc(Oc2ccc(OCC(=O)Nc3ccncc3)cc2)cc1	103	101	.	-6
COC(=O)N/N=C/c1cccc(C(F)(F)F)c1	103	94	-11	6
N#CC1(P(=O)(c2ccccc2)c2ccccc2)CCCC1	101	106	-21	-2
CC(Sc1nc(-c2ccccc2)cc(=O)[nH]1)C(=O)NC1CCCCC1 (configuration not stated)	101	105	19	2
COc1ccc(CC(=O)Nc2ccc(S(N)(=O)=O)cc2)cc1OC	101	105	-5	-13
CCOc1ccc(CCNC(=O)c2c(-n3cccc3)sc(C)c2C)cc1OCC	106	108	-8	5
CC(=O)Nc1ccc(S(=O)(=O)N2CCCC(c3nnc(SCc4ccccc4)n3C)C2)cc1 (configuration not stated)	102	103	13	-3
CCOC(=O)c1c(C)oc2ccc(OC(=O)N3CCOCC3)cc12	101	101	21	-6
CC(C)CC(=O)Nc1nonc1-c1ccccc1	102	103	5	-9
More structures
SMILES	Polio RdRp inh	Polio RdRp inh intensity	MenB inh	Mtb MbtI inh
CCC1CCCCN1CCCNC(=O)c1cc2c(s1)CSC2 (configuration not stated)	105	102	-19	30
CN(Cc1ccccc1)Cn1nc(-c2ccccc2)oc1=S	103	102	-27	17
CCN1C=C(C(=O)OC)C(c2ccc(C(C)C)cc2)C(C(=O)OC)=C1	99	103	-42	-79
CN(C(=O)COc1cccc(Br)c1)c1ccccc1	101	99	.	-10
Cc1cc(=O)[nH]c2c1cnn2C1CCCCC1	102	100	-3	1
CN(C)CCNC(=O)Cn1ncc2c(Cl)cccc21	107	100	-5	8
N#Cc1ccsc1NC(=O)Cn1cnc2sccc2c1=O	117	132	-25	8
O=C1CSc2ccc(C(=O)NCCCN3CCCCC3)cc2N1	101	100	-9	1
O=C1NC(=O)/C(=C\c2ccccc2)N1	100	108	0	.
Cc1ccc(NNC(=O)c2ccno2)cc1C	104	95	-21	10
Cc1ccc(CSc2ncccc2C(F)(F)F)cc1	107	113	-17	-12
CC(C)(C)S(=O)(=O)Cc1nc(-c2cccc(F)c2)cs1	103	104	-2	-7
Cc1ccc(NC(=O)CC2C(=O)NC3CCCCC3N2C(=O)c2ccc(F)cc2)cc1C (configuration not stated)	101	103	0	-3
N#CC(C#N)=Cc1c(Cl)nc2sccn12	67*	69*	-105	-8
CCOC(=O)c1c(C)oc(N)c1C(=O)OCC	95	110	3	-2
NC(=O)c1ccc(-c2cccc(C(F)(F)F)c2)o1	103	100	-43	.
O=C(c1ccc(CSc2ncccn2)cc1)N1CCOCC1	101	106	8	.
COc1ccc(CC(=O)NCCS(=O)(=O)N2CCN(c3ccc(OC)cc3)CC2)cc1	103	104	14	17
c1ccc(CSCc2cn3ccsc3n2)cc1	100	94	.	-2
CN1CCN(c2ccc(NC(=O)CC34CC5CC(CC(C5)C3)C4)cc2)CC1	101	99	6	4
O=C(C1CC(=O)N(C2CCCCC2)C1)N1CCN(c2cccc(C(F)(F)F)c2)CC1 (configuration not stated)	104	102	-12	-31
CCCCCOc1ccc(C(=O)CCN2CCOCC2)cc1	103	100	-7	92*
COc1ccc(CCNC(=O)CSCc2ccc(Cl)cc2)cc1OC	102	100	.	2
COc1ccc(C2OC(=O)CC2C(=O)NC(C)C)cc1 (configuration not stated)	104	110	-18	6
CCC(C)[C@@H](CO[C@@H](Cc1ccccc1)C(=O)N[C@@H](CCS(C)(=O)=O)C(=O)OC(C)C)NC[C@@H](N)CS (some centres not stated)	103&99	102&102	-13	67*
Later entries
SMILES	Polio RdRp inh	Polio RdRp inh intensity	MenB inh	Mtb MbtI inh
COC(=O)c1ccc(/C=N/n2c(-c3ccco3)csc2=NC2CCCCC2)cc1	150	177	-23	2
CC(C)Nc1nc(NC(C)C)nc(N(C)C(N)=O)n1	102	104	4	.
Cc1ccccc1N=Cc1ccc(N(C)C)cc1	105	107	.	0
O=C(O)C1C2C=CC3(CN(CCCN4CCOCC4)C(=O)C13)O2 (configuration not stated)	101	102	-4	-3
NC(=O)c1ccsc1NC(=O)[C@H](Cc1ccccc1)NC(=O)c1ccco1	102	96	-30	-12
COc1ccc(Cn2nnnc2C(c2ccccc2)N2CCC(C)CC2)cc1 (configuration not stated)	104	102	-25	-4
O=C(COC(=O)c1cc(=O)[nH]c2ccccc12)c1ccccc1	.	.	-13	-22
O=c1cc(O)c2sc3nc(-c4cccnc4)c4c(c3c2[nH]1)CCCC4	103	94	-12	.
Cc1cc(N2Cc3ccccc3C2)ccc1/C=C1/C(=O)NC(=O)N(C2CCCCC2)C1=O	97	103	-10	-7
CC1=CC(C)(C)N(S(=O)(=O)c2ccc(C)cc2)c2ccccc21	105	106	-22	.
O=C1Nc2cc(C(=O)N3CCCC3)ccc2NC1CS(=O)(=O)Cc1cccc(Br)c1 (configuration not stated)	99	103	-4	14
Cc1cc(=O)oc2c(CN(C)C3CCCCC3)c(O)ccc12	103	103	-7	114
N#Cc1cn(Cc2ccccc2)c(=O)[nH]c1=O	103	101	-19	-2
CCOC(=O)N1CCN(C(=O)CSc2ccc(-c3ccccc3)nn2)CC1	102	109	-6	5
Cc1nc2ccccc2n1CCOc1ccc(Cl)cc1	100	101	1	-9
CCOC(=O)c1c(/N=C/N(C)C)sc(C)c1C	106	109	-7	-11
COc1ccc2sc(N3C(=O)C4CC=C(C)CC4C3=O)nc2c1 (configuration not stated)	99	102	-28	18
O=C(NCc1ccccc1Cl)C1CCN(c2nc3ccccc3o2)CC1	100	103	1	-27
CCc1c(C(=O)NC2CCCC2)csc1C	99	101	-12	-7
CCCCOC(=O)c1sc2scc(C)c2c1C	104	105	4	5
CCCc1oc2c(cc(NS(=O)(=O)c3ccc(CC)cc3)c3ccccc32)c1C(=O)OCC	101	106	-47	-34
c1cnc2c(c1)NC1(CCCCC1)N2	63	170	-98	81
Cc1ccccc1N1CCn2c1nc1c2c(=O)n(C)c(=O)n1C	103	102	-19	.
CCCCc1nnc(NC(=O)Cn2c(COc3ccccc3)nc3ccccc32)s1	110	128	-11	-13
Cc1oc(-c2ccccc2)nc1C(=O)OCC(=O)C12CC3CC(CC(C3)C1)C2	102	104	-8	-36

Entries of single compounds, looked up by structure. Values in the order: Polio RdRp inh, Polio RdRp inh intensity, MenB inh, Mtb MbtI inh
O=C(c1ccc(CSc2ncccn2)cc1)N1CCOCC1 in the list: 101, 106, 8, .
CC(=O)Nc1ccc(S(=O)(=O)N2CCCC(c3nnc(SCc4ccccc4)n3C)C2)cc1 (configuration not stated) in the list: 102, 103, 13, -3
Cc1onc(-c2ccccc2)c1C(=O)NC(=S)Nc1sc2c(c1C#N)CCC2 in the list: 100, 105, -12, 43

Other records
SMILES	Polio RdRp inh	Polio RdRp inh intensity	MenB inh	Mtb MbtI inh
Cc1nn(Cc2nc(C(C)(C)C)cs2)c(C)c1Br	106	106	-19	-11
CCC(c1nnc(SCc2nc3sc4c(c3c(=O)[nH]2)CCC4)n1Cc1ccccc1)N(C)C (configuration not stated)	.	.	2	20
N#CC(C#N)=Cc1ccc(OC(=O)c2ccccn2)cc1	87*	93*	-163	34
CCCS(=O)(=O)C1=C(N)OC(c2ccccc2)=C(C#N)C1c1ccc(Cl)cc1 (configuration not stated)	104	101	7	19
Cc1cc(C(=O)N/N=C2\CCCc3ccccc32)c(C)o1	104	101	-3	-24
CS(=O)(=O)N1CCN(c2ccccc2F)CC1	106	103	-38	-6
COc1ccc(S(=O)(=O)NCc2cn3cccc(C)c3n2)cc1OC	101	99	-12	0
Cc1nn(CCCC(=O)NC(C)C)c(=O)c2c1sc1ccccc12	103	103	11	61
COc1ccc(NS(=O)(=O)c2ccc(Oc3ncccn3)cc2)cc1	105	98	3	6
COC(=O)c1c(C)oc(C)c1S(=O)(=O)NCCSCc1c(F)cccc1Cl	106	105	-19	-3
C1CN(C2OCCOC2N2CCOCC2)CCO1 (configuration not stated)	99	104	2	-5
COc1ccc(Br)cc1CN(C)CN1C(=O)C2CC=CCC2C1=O (configuration not stated)	.	.	-20	4
CC(=O)Nc1ccc(C(=O)Nc2ccc(OCC(=O)O)cc2)cc1	101	103	3	11
CC1(C)CC(=O)C(C=NCCN2CCN(C(=O)Nc3ccc(Cl)c(Cl)c3)CC2)=C(O)C1	100	102	-18	3
O=C(COC(=O)c1ccc(-n2cnnn2)cc1)Nc1ccccc1C(=O)NC1CC1	103	108	-21	4
O=C(NCCc1ccccc1)c1ccccc1O	104	105	-2	.
CC(C)Cc1nnc(NC(=O)CCn2[nH]c(=O)ccc2=O)s1	101	109	-10	-1
CC12CCC(=O)N1C(C(=O)NCCN1C(=O)S/C(=C\c3ccccc3)C1=O)CS2 (configuration not stated)	97	103	-10	7
O=C(NC(=O)c1ccccc1)c1ccccc1	102	105	.	-2
Cc1c(C2=CCN(S(=O)(=O)c3ccc(Cl)s3)CC2)c2ccccc2n1CC(=O)N1CCCC1	102	101	-10	-1
c1cncc(C2OCC3(CO2)COC(c2cccnc2)OC3)c1 (configuration not stated)	103	105	-26	-1
CNc1ncc(Br)nc1Br	100	97	2	14
COC(=O)c1ccc(OP2(=O)COc3ccccc3OC2)cc1	100	104	-17	-3
O=C1C=C(NCCOC23CC4CC(CC(C4)C2)C3)C2(CCCCC2)O1	102	105	-3	.
CS(=O)(=O)NCC(c1cccs1)S(=O)(=O)c1ccccc1 (configuration not stated)	97	104	3	-4

Overlap with the part before: four entries; new compounds follow.
SMILES	Polio RdRp inh	Polio RdRp inh intensity	MenB inh	Mtb MbtI inh
CNc1ncc(Br)nc1Br	100	97	2	14
COC(=O)c1ccc(OP2(=O)COc3ccccc3OC2)cc1	100	104	-17	-3
O=C1C=C(NCCOC23CC4CC(CC(C4)C2)C3)C2(CCCCC2)O1	102	105	-3	.
CS(=O)(=O)NCC(c1cccs1)S(=O)(=O)c1ccccc1 (configuration not stated)	97	104	3	-4
O=C(OCc1ccc2c(c1)OCO2)c1cccc(S(=O)(=O)N2CCCC2)c1	105	104	-20	5
O=C(O)c1ccccc1C(=O)n1ccnc1-c1ccccc1	104	106	-8	-2
O=C(CNS(=O)(=O)c1ccc(Br)s1)NCc1ccccc1	100	92	-11	4
CN(C)C(=O)c1ccccc1NC(=O)c1ccco1	106	104	-18	.
COc1ccc2cc(CNC3CCCCC3)c(=O)[nH]c2c1	102	101	3	81
O=c1c(=O)n2c(nn1Cc1ccc(F)cc1)sc1ccccc12	107	99	11	51
O=C(CSc1nnc(-c2c[nH]c3ccccc23)o1)NCC1CN(Cc2ccccc2)CCO1 (configuration not stated)	.	.	-15	-10
CCn1c(-c2nonc2N)nc2ccccc21	100	95	3	14
CCOC(=O)N1CCC(NC2C3CC4CC(C3)CC2C4)CC1 (configuration not stated)	99	103	-10	-13
CCn1c(=O)c2cc(C(=O)NC3CCCC3)sc2c2ccccc21	102	93	-13	4
COc1ccccc1N1CCN(CC(=O)Nc2ccc3[nH]c(=O)[nH]c3c2)CC1	97	98	-20	-9
Cc1ccc(NC(=O)COC(=O)C2(CC(=O)NC(C)C)CCCC2)cc1C	106	110	-24	29
COc1ccc(C(=O)[C@@H]2[C@@H](c3ccccc3F)C(C#N)(C#N)[C@H]3C=Cc4ccccc4N23)cc1	46	260	-1	.
C=CCN(CC=C)S(=O)(=O)Cc1ccccc1	106	113	-2	.
C=CCn1c(NC(=O)/C=C/c2ccccc2)c(C#N)c2nc3ccccc3nc21	148	164	-15	12
C=CCn1c(C)c(/C=C/C2=CCN(C)CC2)c2ccccc21	78	196	-168	79
COc1ccccc1N1CCN(c2nc(Nc3ccc(C)cc3)c3cnn(C)c3n2)CC1	100	104	6	-25
CCc1ccc(NC(=O)C2CCN(S(=O)(=O)c3c(C)[nH]c(=O)[nH]c3=O)CC2)cc1	100	105	-10	-6
CC(C)(C)c1nc2ccccc2c(=O)n1-c1ccc(F)cc1F	99	108	-6	.
OC1CCCCC1N1CCNCC1 (configuration not stated)	100	104	-16	6
